Bioassay records deposited in PubChem BioAssay by National Center for Advancing Translational Sciences (NCATS).
VDR inh: blocks the human vitamin D receptor; Potency, µM, for inactives: max response, negative = inhibition, actives largely listed as inhibitors; P11473; hit rate 0.93% among 400,000; AID 504847; VDR-SRC2-3 peptide fluorescence polarization, 2 h; active means well fitted inhibition curve with a large enough effect; inconclusive means small, poorly fitted or top-dose-only effect, or another doubt; inactive means no such curve, though single readings can be large or run the other way; further: series mostly up to about 120 µM
Target sequence (P11473 whole entry, looked up): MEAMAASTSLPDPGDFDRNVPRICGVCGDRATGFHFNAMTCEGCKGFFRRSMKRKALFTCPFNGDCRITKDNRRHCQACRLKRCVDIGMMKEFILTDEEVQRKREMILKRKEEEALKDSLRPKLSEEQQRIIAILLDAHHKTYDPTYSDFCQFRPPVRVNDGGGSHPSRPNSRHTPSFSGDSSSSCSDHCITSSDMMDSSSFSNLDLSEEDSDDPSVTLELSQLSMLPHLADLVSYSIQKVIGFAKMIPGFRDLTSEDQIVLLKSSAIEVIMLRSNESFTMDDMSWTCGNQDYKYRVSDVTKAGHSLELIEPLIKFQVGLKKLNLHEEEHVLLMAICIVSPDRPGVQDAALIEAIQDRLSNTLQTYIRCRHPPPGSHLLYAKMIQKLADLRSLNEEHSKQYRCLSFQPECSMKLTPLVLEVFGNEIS
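VDR–SRC2-3 interaction, FP format. Cmpds 23 nl via pintool, brief spin, 2 h ambient incubation.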
Numbers without * were called inactive; ? = inconclusive. On the % scale 0 is the no-effect control and ±100 the full control effect; potency means the concentration at half of the fitted maximal effect. A portion of the library, so the mix of outcomes need not match the whole.

SMILES | VDR inh
CCCn1c(N2CCN(C(=O)/C=C/C(=O)O)CC2)nc2ccccc21 | -6%
O=C(c1cn(-c2ccc(Cl)c(Cl)c2)nn1)C1CC1 | 1%
CCc1ccc(CNC(=O)C2CCN(c3nnc(-n4c(C)ccc4C)s3)CC2)cc1 | 8%
O=C1c2ccccc2C(=O)N1CCOc1ccccc1Br | ?
Cc1ccsc1C(=O)OCC(=O)N1CC(=O)Nc2ccccc21 | 4%
O=C(CCC(=O)N(CC(=O)NC1CCCCC1)Cc1ccccc1)Nc1nccs1 | -11%
O=[N+]([O-])c1ccc(N=Nc2ccc(O)c3ccccc23)cc1 | 10%
Cc1ccc(NS(=O)(=O)c2ccc3[nH]c4c(c3c2)CCCC4)c(C)c1 | 9%
CS(=O)c1ccccc1O (centres undefined) | 15%
CC(C)(C)c1ccc(S(=O)(=O)/C=C\C#N)cc1 | 2µM*
CCOC(=O)C(=CNc1nc2ccc(C(=O)OCC)cc2s1)C(=O)OCC | -9%
CC(C)(C)c1ccc(C(=O)N2CCN(CCc3ccccn3)CC2)cc1 | 10%
CC(C)(C)C1CCc2nc(NC(=O)COc3ccc(F)cc3)sc2C1 (centres undefined) | 10%
Cc1ccc(OCc2cc(C(=O)NCc3cn4ccccc4n3)no2)cc1C | 11%
COc1ccc(N2C(=O)C(Cc3ccccc3)NC2=S)cc1 (centres undefined) | 12%
CCOc1cc(S(=O)(=O)N2CCN(S(=O)(=O)CC)CC2)c(OCC)cc1-n1cnnn1 | -5%
Cc1cc(NS(=O)(=O)c2ccc(NC(=O)COc3ccccc3C(C)C)cc2)no1 | -19%
O=C(CN1CCN(S(=O)(=O)c2ccc(Cl)c(C(F)(F)F)c2)CC1)NC(=O)NC1CCCCC1 | 5%
CC(C)C[C@H](NC(=O)c1nc[nH]c1C(=O)NCCCCCN)C(=O)OCc1ccccc1 | 5%
COc1cccc(-n2c(N)cc(=O)nc2SCC(=O)Nc2cc(C)on2)c1 | -16%
COc1ccc(N2CC(NC(=O)c3cccs3)CC2=O)cc1OC (centres undefined) | 7%
C[C@H](NC(=O)c1nc[nH]c1C(=O)N[C@@H](C)C(=O)OCc1ccccc1)C(=O)OCc1ccccc1 | -4%
CCC(=NCCc1ccc(OC)c(OC)c1)c1ccccc1O | 15%
Cc1cc2cc(CN(CCN(C)C)C(=S)NCc3ccco3)c(=O)[nH]c2cc1C | 16%
O=C(c1cc([N+](=O)[O-])ccc1N1CCOCC1)N1CCOCC1 | -9%
COc1ccc(NC(=O)c2ccc(-n3cnnn3)cc2)c([N+](=O)[O-])c1 | 6%
NC(=O)[C@H]1CC2(CC(c3cccc(NC(=O)[C@H]4CCC(=O)N4)c3)=NO2)CN1C(=O)c1ccccc1 (some centres undefined) | -8%
O=C(Cn1nnc(-c2ccccc2-n2cnnn2)n1)N1CCCCC1 | 12%
COc1ccccc1N1CCN(C(=O)c2cc3c(=O)oc4ccccc4c3s2)CC1 | 0%
COc1cc(C)c2c(c1OC)C(=O)CC2 | 0%
Cc1csc(NC(=O)NC2(C(F)(F)F)Oc3ccccc3O2)n1 | ?
O=C(CN1CCc2ccccc2C1)N1CCN(S(=O)(=O)c2ccccc2)CC1 | -12%
CC(C)(C)c1ccc(S(=O)(=O)N2CCc3nc4ccccc4c(C(=O)O)c3C2)cc1 | 7%
O=C1CC(/C=C/c2ccco2)=Nc2ccccc2N1 | -5%
COc1cccc(C(=O)Nc2ccc(-c3nc4ccccc4s3)cc2Cl)c1 | -1%
O=C(NCC1CCCO1)C1CCCN(S(=O)(=O)c2cc(Cl)ccc2Cl)C1 (centres undefined) | 1%
CN(Cc1cccs1)C(=O)C1CC(=O)N(Cc2ccccc2)C1 (centres undefined) | -3%
COCCCNC(=O)C1CC(=O)N(CCc2ccc(OC)c(OC)c2)C1 (centres undefined) | -18%
COc1ccc(OC)c(-c2cc(C(=O)NC(C)c3ccccc3)no2)c1 (centres undefined) | 3%
NS(=O)(=O)c1ccc(NC(=O)Nc2ccccc2)cc1 | 9%

Part of the list above in order of formula weight, low to high:
SMILES | VDR inh
CN(Cc1cccs1)C(=O)C1CC(=O)N(Cc2ccccc2)C1 (centres undefined) | -3%
COc1ccc(NC(=O)c2ccc(-n3cnnn3)cc2)c([N+](=O)[O-])c1 | 6%
O=C(NCC1CCCO1)C1CCCN(S(=O)(=O)c2cc(Cl)ccc2Cl)C1 (centres undefined) | 1%

New compounds follow
SMILES | VDR inh
O=C(/C=C/c1ccc(Cl)cc1)NCCCn1ccnc1 | 0%
C[C@H](CO)N1C[C@H](C)[C@@H](CN(C)S(=O)(=O)c2cn(C)cn2)Oc2ccc(NC(=O)C3CC3)cc2C1=O | 8%
Cc1c(C(=O)NCCSCc2ccccc2Cl)cccc1[N+](=O)[O-] | 2%
O=C(NCCc1nc2ccccc2[nH]1)c1ccco1 | -2%
Cc1cccc(OCc2nnc(-c3ccccc3)o2)c1 | 10%
COc1ccc(NC(=O)CN(C)C(=O)C2=COCCO2)cc1 | -15%
COc1cccc(CNC(=O)CCn2nc(C)c3c(C)n(-c4ccccc4)nc3c2=O)c1 | 19%
O=C1NC(=O)C2(CCC(C3CCCCC3)CC2)N1 (centres undefined) | -12%
O=C(NCc1ccncc1)c1cccc(S(=O)(=O)NCc2ccccc2)c1 | -9%
Cc1oc(C(C)(C)C)cc1C(=O)Nc1cccc(/C=C/C(=O)O)c1 | -4%
O=c1c2ccccc2nc(N2CCN(c3cccc(Cl)c3)CC2)n1-c1ccccc1 | -10%
COc1ccc(OC)c(S(=O)(=O)N2CCC(C(=O)NCCc3ccc(OC)c(OC)c3)CC2)c1 | 14%
CCC(=O)NCC(c1cccs1)N1CCOCC1 (centres undefined) | -3%
O=C1CCCN2N=C(SCC(=O)Nc3cccc(Cl)c3)SC2=N1 | 3%
CCOc1ccc(C2C(C(=O)c3ccc(C)o3)=C(O)C(=O)N2CCN2CCOCC2)cc1OC (centres undefined) | -3%
O=C(Nc1cccc(O)c1)c1ccc(S(=O)(=O)N2CCCCCC2)cc1 | -12%
COc1cc(CCC(=O)OCC(=O)N2CCc3ccccc32)cc(OC)c1OC | -25%
O=C(NCc1ccccc1)C(c1ccc(O)cc1)N(C(=O)c1cnccn1)c1ccccc1 (centres undefined) | -3%
CCN(C(=O)CSc1nc2ccccc2n1Cc1ccccc1C#N)c1ccccc1 | 9%
Cc1ccnc(Nc2nc(-c3ccc(O)cc3O)cs2)c1 | -4%
CCc1ccc(C(C(=O)NCc2ccc(F)cc2)N(C(=O)c2csnn2)C2CC2)cc1 (centres undefined) | -10%
COc1ccc(S(=O)(=O)N2CCOC2CNC(=O)C(=O)NCc2ccccc2Cl)cc1 (centres undefined) | 12%
CCOC(=O)N1CCN(C(=O)CN(c2cc(C)ccc2OC)S(=O)(=O)c2ccc(C)cc2)CC1 | -9%
O=C(Nc1ccc(Cl)c(C(F)(F)F)c1)c1ccco1 | -11%
N#Cc1ccccc1CN1C(=O)NC(Cc2c[nH]c3ccccc23)C1=O (centres undefined) | -14%
COc1ccc(CCNC(=O)CSc2ccc(-c3ccccc3)nn2)cc1OC | 1%
CCN1C(=O)N[C@@H](c2cccc(C(F)(F)F)c2)[C@H](C(=O)OC)[C@H]1C | -7%
COCc1nnc(N)s1 | 9%
COc1ccc(-c2c(C)[nH]n3c(=O)c(Cc4ccccc4)c(C)nc23)cc1 | 1%
COC(=O)C1CCN(CC(=O)NC(=O)NC2CCCCC2)CC1 | -4%
O=C1CN(C(=O)NCC(=O)N[C@H](C(=O)O)c2ccccc2)c2ccccc2N1 | -14%
CCOc1ccc(-c2nnc(-c3ccncc3)o2)cc1 | 71µM*
CC(C)n1cc(CN2CCN(C)C(CCO)C2)c2ccccc21 (centres undefined) | -5%
CCCCOC(=O)CCCN1C(=O)/C(=C2\SC(=S)N(CCCC(=O)OCCCC)C2=O)SC1=S | -24%
CCCCCC(=O)Nc1cccc(C2=NOC3(C2)C[C@@H](C(N)=O)N(C(=O)c2cc([N+](=O)[O-])cc([N+](=O)[O-])c2C)C3)c1 (some centres undefined) | 13%
CCN(CC)c1ccc(C=Nc2cccc(S(=O)(=O)N3CCOCC3)c2)c(O)c1 | -1%
CCCSc1nnc(-c2ccccc2N)c(=O)[nH]1 | 12%
CC(C)(C)OC(=O)N1CCC(c2c(C(=O)O)cnn2-c2ccc(Cl)cc2)CC1 | 14%
O=C(NCc1ccc(F)cc1)C(c1cccnc1)N(C(=O)c1csnn1)c1ccccc1 (centres undefined) | -5%
CCc1ccccc1NC(=O)COC(=O)c1c(C)nsc1NC | 13%
Oc1cc(Cl)cc(Cl)c1Cl | -10%
CC(=O)c1c(C)[nH]c(C(=O)OCC(=O)N2CC(C)OC(C)C2)c1C (centres undefined) | ?
Cc1ccc(C)c(N(CC(=O)NCc2ccco2)C(=O)CCC(=O)Nc2ccccn2)c1 | 1%
O=C(CCCc1ccccc1)NC1CC1 | -14%
O=C(/C=C/c1ccccc1[N+](=O)[O-])NCCCN1CCCC1=O | 4%
C=CC[C@@H](CC(=O)N[C@H](CO)Cc1ccccc1)C(=O)N[C@H](COC(=O)[C@@H](CC=C)Cc1ccc(F)cc1)Cc1c[nH]c2ccccc12 | 3%
Cc1cccc(Nc2nnc(SCC(=O)c3ccc(Br)s3)s2)c1C | -8%
Cc1cc(C)n(C(=O)COc2ccc(Cl)cc2Cl)n1 | 9%
CCOc1ccc(C(=O)C2CCN(C(=O)c3ccccc3C(=O)O)CC2)cc1 | 18%
Cc1cc(N2C(=O)C(O)=C(C(=O)c3ccc(C)o3)C2c2cccc(Oc3ccccc3)c2)no1 (centres undefined) | ?
Cc1ccc(NC(=S)NCCCN2CCOCC2)cc1C | -18%
CCCCn1c(N)c(N(CC(C)C)C(=O)Cn2c(=O)cnc3ccccc32)c(=O)[nH]c1=O | 13%
COC(=O)c1ccc(NC(=S)NCCc2cccc(C)c2)cc1 | -28%
Cc1ccccc1NC(=O)c1ccc(C)c(S(=O)(=O)Nc2ccccn2)c1 | 1%
Cc1ccc(NC(=O)C2CC(=O)NC(Nc3cccc(C)c3)=N2)cc1 (centres undefined) | -2%
CCN1CCN(S(=O)(=O)c2ccc(S(=O)(=O)NCC3CCCO3)cc2)CC1 (centres undefined) | -15%
COc1ccc(Oc2cccc(Cl)c2CNC(=O)CCC(=O)O)cc1 | 2%
O=S(=O)(NCC1CCCO1)c1ccccc1F (centres undefined) | 13%
CN(C)/C=C(\C#N)C(=O)Nc1ccc(F)cc1 | 4%
CCOC(=O)C1=C(C)N=C2SC(C)C(=O)N2C1c1ccc(OCC)c(OCC)c1 (centres undefined) | 3%

The listing continues:
SMILES | VDR inh
Cc1ccc(CN2CCN(Cc3ccc(C)s3)CC2CCO)cc1 (centres undefined) | -5%
CCOc1ccccc1NC(=O)C1C2CCC(O2)C1C(=O)O (centres undefined) | -12%
O=C1CC(c2ccc(Cl)cc2)Oc2ccc(Cl)cc21 (centres undefined) | ?
COc1ccccc1-c1cc(C(=O)N2CCCCC2C)no1 (centres undefined) | -10%
Cc1ccc(NC(=O)CN2CCC(NC(=O)Cc3ccccc3)CC2)c(C)c1 | -2%
O=C(c1ccc(F)cc1)C1CCN(Cc2cn[nH]c2-c2ccc(F)cc2)CC1 | -6%
Cc1ccc(-n2c(SCC(N)=O)nnc2-c2cccnc2)c(C)c1 | 0%
COc1cccc(-n2c(Cc3cc(=O)[nH]c(=O)[nH]3)nnc2SCC(=O)N2CCCCC2)c1 | -19%
C#C[C@@]1(O)CC[C@@H]2[C@H]3CCC4=C/C(=N\O)CC[C@H]4[C@@H]3CC[C@]21CC | -27%
COc1ccc(C[C@H]2CN3C(=NC[C@H]3C)N2CCNC(=O)CCC2CCCCC2)cc1 | -19%
O=c1ccc(Oc2nc(N3CCOCC3)nc(N3CCOCC3)n2)nn1-c1ccccc1 | 17%
CCCCc1nn(-c2cc(Cl)ccc2OC)c2c1C(=O)CCC2 | -17%
CCOc1cc2sc(N3CCC(C(=O)Nc4cc(C)cc(C)c4)CC3)nc2cc1Br | 12%
Cc1ccccc1-n1c(C)n[nH]c1=S | -15%
CC(C)C(NC(=O)Nc1ccccc1)C(=O)Nc1cccc(S(=O)(=O)N(C)C)c1 (centres undefined) | -4%
COC(=O)c1ccc(NCCc2csc(-c3ccc(C)cc3)n2)c([N+](=O)[O-])c1 | 2%

Among those listed so far, these have a Cl atom.
SMILES | VDR inh
O=C(c1cn(-c2ccc(Cl)c(Cl)c2)nn1)C1CC1 | 1%
O=C(CN1CCN(S(=O)(=O)c2ccc(Cl)c(C(F)(F)F)c2)CC1)NC(=O)NC1CCCCC1 | 5%
COc1cccc(C(=O)Nc2ccc(-c3nc4ccccc4s3)cc2Cl)c1 | -1%
O=C(NCC1CCCO1)C1CCCN(S(=O)(=O)c2cc(Cl)ccc2Cl)C1 (centres undefined) | 1%
O=C(/C=C/c1ccc(Cl)cc1)NCCCn1ccnc1 | 0%
Cc1c(C(=O)NCCSCc2ccccc2Cl)cccc1[N+](=O)[O-] | 2%
O=c1c2ccccc2nc(N2CCN(c3cccc(Cl)c3)CC2)n1-c1ccccc1 | -10%
O=C1CCCN2N=C(SCC(=O)Nc3cccc(Cl)c3)SC2=N1 | 3%
COc1ccc(S(=O)(=O)N2CCOC2CNC(=O)C(=O)NCc2ccccc2Cl)cc1 (centres undefined) | 12%
O=C(Nc1ccc(Cl)c(C(F)(F)F)c1)c1ccco1 | -11%
CC(C)(C)OC(=O)N1CCC(c2c(C(=O)O)cnn2-c2ccc(Cl)cc2)CC1 | 14%
Oc1cc(Cl)cc(Cl)c1Cl | -10%
Cc1cc(C)n(C(=O)COc2ccc(Cl)cc2Cl)n1 | 9%
COc1ccc(Oc2cccc(Cl)c2CNC(=O)CCC(=O)O)cc1 | 2%
O=C1CC(c2ccc(Cl)cc2)Oc2ccc(Cl)cc21 (centres undefined) | ?
CCCCc1nn(-c2cc(Cl)ccc2OC)c2c1C(=O)CCC2 | -17%
